High-throughput results deposited in PubChem BioAssay by National Center for Advancing Translational Sciences (NCATS).
Rango dissoc inh – qHTS Assay for Inhibitors of RanGTP induced Rango (Ran-regulated importin-beta cargo) - Importin beta complex dissociation | Snurportin-1 (Homo sapiens) + GTP-binding nuclear protein Ran (Homo sapiens) + Importin … | 340,000 compounds, 0.071% hits | Biochemical FRET Rango-importin beta, RanGTP-induced dissociation | Potency, µM (series often up to 46.1 µM), inactives show top-dose activity change, negative = inhibition | AID 540253, 2011; active means falling FRET ratio curve, often poorly fitted, with flat reads before Ran was added; inconclusive means other falling curves, or compound fluorescence or quenching; inactive means flat or rising ratio curve;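 also: potency is read from the fitted curve at half-maximal effect; % of control where 0% means no effect; nearly all actives have a fitted effect of over 45% in size; -100% = wells without RanGTP and RCC1; the record marks most hits as doubtful in a second field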
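Recombinant Rango FRET biosensor (EYFP–snurportin 1 IBB–cerulean CFP10) at 0.1 uM premixed with 0.25 uM importin beta in PBS, 1 mM DTT, 0.02% Tween-20, 0.1% BSA. Compound added 5 min; RanGTP-RCC1 (0.6 uM Ran, 2 mM GTP, 0.2 uM RCC1) then triggers release, read at 45 min.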
miR-21 FLuc – qHTS Assay for Modulators of miRNAs and/orActivators of miR-21; HeLa miR-21 FLuc reporter, luciferase, 48 h; Potency, µM (doses to about 38.3 µM), without a hit: at the top dose reporter change, positive = more light; 340,000 tested, under 10 active; AID 2288, 2010; active = well fitted rising curve with a large enough effect; inconclusive = small, poorly fitted or top-dose-only effect; inactive = no such curve, though single readings can be large or run the other way;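 also: % of control where 0% means no effect; miR-21 action dims this reporter so a rising signal means less miR-21 action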
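HeLa cells endogenously expressing miR-21, stably carrying CMV-driven firefly luciferase with a downstream miR-21 binding site, 2000 cells/well. Titrations up to approximately 40 uM, 48 hours; luciferase luminescence read.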
GLA inh pH 4.5 – qHTS Assay for Inhibitors of Human alpha-Galactosidase at pH 4.5 | Alpha-galactosidase A (Homo sapiens), P06280 | activity change, negative = inhibition, % at 105 µM | 230,000 tested, under 10 active | purified enzyme, 4-MU-alpha-Gal fluorescence, pH 4.5 | AID 1467, 2008; inconclusive = small, poorly fitted or top-dose-only inhibition, or a rising curve; inactive = flat fitted curve, though single readings scatter; no compound was filed as active;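 also: 0% = full activity with enzyme and -100% = basal without enzyme; dose as in the result columns while the protocol names 77 µM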
Target sequence (P06280 whole entry, looked up): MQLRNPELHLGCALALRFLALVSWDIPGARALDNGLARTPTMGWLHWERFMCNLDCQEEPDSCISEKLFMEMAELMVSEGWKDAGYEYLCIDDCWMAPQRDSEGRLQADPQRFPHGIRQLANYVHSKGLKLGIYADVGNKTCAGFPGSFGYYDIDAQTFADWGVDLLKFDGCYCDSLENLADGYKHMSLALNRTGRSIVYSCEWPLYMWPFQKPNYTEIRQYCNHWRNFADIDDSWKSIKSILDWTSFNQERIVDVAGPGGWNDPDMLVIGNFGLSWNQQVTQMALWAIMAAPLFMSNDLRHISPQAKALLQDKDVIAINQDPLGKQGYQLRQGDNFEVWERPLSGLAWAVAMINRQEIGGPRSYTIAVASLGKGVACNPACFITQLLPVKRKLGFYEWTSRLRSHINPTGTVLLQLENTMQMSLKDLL
Rango complex inh – qHTS Assay for Inhibitors of Rango (Ran-regulated importin-beta cargo) - Importin beta complex formation. Potency, µM (doses to about 92.2 µM), for the others: top-dose inhibition of complex formation. Rango CFP/YFP FRET sensor + importin beta, 45 min. Importin subunit beta-1 (Homo sapiens), Q14974. 340,000 compounds, 0.031% hits. AID 540263, 2011; active = rising FRET ratio curve, often small or poorly fitted; inconclusive = mostly compound fluorescence or quenching in the first reads; inactive = flat curves in all reads;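 also: potency is read from the fitted curve at half-maximal effect; 0% = DMSO wells and 100% = buffer wells lacking importin beta; nearly all actives have a fitted effect of over 15% in size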
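Inhibition scored from the CFP 486 nm/YFP 530 nm FRET ratio 45 min after adding 0.125 microM importin beta to 50 nM Rango biosensor preincubated 5 min with compound (room temperature, PBS with DTT, Tween-20, BSA). No-importin wells as positive control.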
Active calls of the source: *; u = inconclusive; x = no result given. These rows are one share of the data, so the mix of outcomes need not match the whole.

No.	molecule	Rango dissoc inh	miR-21 FLuc
1	CC(C)NC(=O)Nc1ccc2c(c1)C(=O)N([C@H](C)CO)C[C@H](C)[C@@H](CN(C)S(=O)(=O)c1ccccc1)O2	-8%	x
2	CC(C)CNC(=O)Nc1ccccc1F	0%	-8%
3	Cc1nnc2c3cnn(-c4ccc(Cl)cc4)c3ncn12	x	-52%
4	CCOC(=O)C(O)(CC(=O)c1ccc(OC)cc1)C(F)(F)F (configuration not stated)	-20%	-5%
5	O=C(C1CCCCN1S(=O)(=O)c1ccccc1[N+](=O)[O-])N1CCOCC1 (configuration not stated)	-2%	5%
6	Cn1ccnc1SCC(=O)Nc1cccc(C(F)(F)F)c1	-1%	-31%
7	C=CC[C@@H](CC(=O)N(CCO)Cc1ccccc1)C(=O)NCCOC(=O)[C@@H](CC=C)Cc1ccc(F)cc1	1%	x
8	Cn1c(=O)n(C)c2cc(NC(=O)c3ccc(F)cc3)ccc21	-4%	-23%
9	Cc1[nH]n(-c2ccccc2)c(=O)c1N=Nc1ccccc1C(=O)O	16%	-6%
10	C=CCNC(=S)N1CC2(C)CN(C(=S)NCC=C)CC(C)(C1)C2=O	-9%	-4%
11	Cc1nc(C)c(C(=O)OCC(=O)NCc2ccccc2)s1	0%	x
12	CCOC(=O)Cc1csc(N/N=C\c2ccccc2OC)n1	-3%	-16%
13	Cc1nc2ccc(NC(=O)N3CCN(c4ccccn4)CC3)cc2s1	6%	-5%
14	COc1cccc(C(=O)N2CCN(C(=O)c3cccc4ccccc34)CC2)c1OC	13%	-3%
15	CC1CCCCN1C(=O)Cc1ccc(F)cc1 (configuration not stated)	8%	-8%

No.	GLA inh pH 4.5	Rango complex inh
1	x	-1.2%
2	3	1.1%
3	3	x
4	-2	-0.5%
5	-1	-1.6%
6	7	-2.5%
7	x	-0.7%
8	x	-3.5%
9	x	-0.6%
10	-4	0.7%
11	x	0.2%
12	x	-2.8%
13	1	-0.2%
14	2	3.1%
15	2	-1.2%

(cont.)
No.	molecule	Rango dissoc inh	miR-21 FLuc
16	O=[N+]([O-])c1ccc(Sc2ccc(F)cc2)nc1	-10%	x
17	O=C(c1cccc(S(=O)(=O)Nc2cccc(C(F)(F)F)c2)c1)N1CCOCC1	1%	-6%
18	COC(=O)c1[nH]c2ccc(Br)cc2c1NC(=O)C(C)N1CCN(C2CCCCC2)CC1 (configuration not stated)	u	21%
19	Cc1ccc(CNC(=O)CCS(=O)(=O)c2ccc(Cl)cc2)cc1	-12%	2%
20	O=C(c1cccn2c(=O)c3cc(Br)ccc3nc12)N1CCN(c2ccccn2)CC1	-21%	-3%
21	Cc1cc(C)n(-c2ccc(C(=O)N3CCN(S(=O)(=O)c4ccc(Cl)cc4)CC3)cc2)n1	-1%	x
22	Cc1cc(C)n(C(=O)CSc2nc3ccccc3o2)n1	9%	-11%
23	CC1=CC(C)[C@H](/C=N/n2c(=O)[nH]c3c([nH]c4ccc(Br)cc43)c2=O)C(C)C1 (some centres not stated)	13%	-5%
24	Cc1cccc(NC(=O)c2cc(-c3ccc(C)s3)nc3ccccc23)n1	-4%	22%
25	CCN1C(=O)CC(N2CCN(c3ccc(OC)cc3)CC2)C1=O (configuration not stated)	1%	7%
26	C=C(C)CN(CC)C(=O)CN1C(=O)NC2(CCc3ccccc32)C1=O (configuration not stated)	9%	0%
27	CCCOc1ccc(-c2nc(C#N)c(NCC3CCCO3)o2)cc1 (configuration not stated)	2%	-9%
28	COc1ccc(NC(=O)CN(C)C(=O)c2ccc3ccccc3n2)cc1	-10%	x
29	O=S(=O)(NCc1ccc2c(c1)OCO2)c1ccc2c(c1)oc1ccccc12	-9%	-17%
30	CC1(c2nnc(-c3ccc(F)cc3)o2)CC(c2ccc(F)cc2)=NO1 (configuration not stated)	u	0%

No.	GLA inh pH 4.5	Rango complex inh
16	x	-3.1%
17	-3	0.6%
18	1	3.4%
19	-3	-0.2%
20	-13	0.4%
21	x	3.1%
22	-3	3.4%
23	4	-3.1%
24	-3	u
25	-8	1.3%
26	x	2.0%
27	9	7.8%
28	x	1.2%
29	3	0.0%
30	-4	1.9%

As a working copy, part of the list above:
No.	molecule	Rango dissoc inh	miR-21 FLuc
20	O=C(c1cccn2c(=O)c3cc(Br)ccc3nc12)N1CCN(c2ccccn2)CC1	-21%	-3%
21	Cc1cc(C)n(-c2ccc(C(=O)N3CCN(S(=O)(=O)c4ccc(Cl)cc4)CC3)cc2)n1	-1%	x
22	Cc1cc(C)n(C(=O)CSc2nc3ccccc3o2)n1	9%	-11%
23	CC1=CC(C)[C@H](/C=N/n2c(=O)[nH]c3c([nH]c4ccc(Br)cc43)c2=O)C(C)C1 (some centres not stated)	13%	-5%
24	Cc1cccc(NC(=O)c2cc(-c3ccc(C)s3)nc3ccccc23)n1	-4%	22%
25	CCN1C(=O)CC(N2CCN(c3ccc(OC)cc3)CC2)C1=O (configuration not stated)	1%	7%
26	C=C(C)CN(CC)C(=O)CN1C(=O)NC2(CCc3ccccc32)C1=O (configuration not stated)	9%	0%
27	CCCOc1ccc(-c2nc(C#N)c(NCC3CCCO3)o2)cc1 (configuration not stated)	2%	-9%
28	COc1ccc(NC(=O)CN(C)C(=O)c2ccc3ccccc3n2)cc1	-10%	x
29	O=S(=O)(NCc1ccc2c(c1)OCO2)c1ccc2c(c1)oc1ccccc12	-9%	-17%
30	CC1(c2nnc(-c3ccc(F)cc3)o2)CC(c2ccc(F)cc2)=NO1 (configuration not stated)	u	0%

No.	GLA inh pH 4.5	Rango complex inh
20	-13	0.4%
21	x	3.1%
22	-3	3.4%
23	4	-3.1%
24	-3	u
25	-8	1.3%
26	x	2.0%
27	9	7.8%
28	x	1.2%
29	3	0.0%
30	-4	1.9%

Next part.
No.	molecule	Rango dissoc inh	miR-21 FLuc
31	CCN(CC)CCN(C(=O)c1ccc2c(c1)CCCC2)c1nc2c(C)cccc2s1	0%	-2%
32	COc1ccccc1-n1cnnc1SCC(=O)N1CCN(S(=O)(=O)c2ccccc2)CC1	13%	-3%
33	COc1cccc(CNC(=O)[C@@H](C)N2C(=O)N3CCc4c([nH]c5ccc(OC)cc45)C3(C)C2=O)c1 (some centres not stated)	9%	5%
34	COC(=O)c1ccc(COC(=O)CNC(=O)c2ccc(C)s2)cc1	-3%	x
35	CCN1CCN(c2nc(Nc3ccccc3)nc(N)c2[N+](=O)[O-])CC1	14%	-14%
36	CC(c1ccccc1)n1cc(C(=O)NCC2CCCO2)nn1 (configuration not stated)	17%	-3%
37	COc1ccc(CCN2CC(C(=O)N(C)Cc3cccnc3)CC2=O)cc1OC (configuration not stated)	3%	x
38	Cc1ccc(OCC(=O)NC(C)c2ccccc2)cc1C (configuration not stated)	6%	2%
39	Cc1cc(C)cc(NC(=O)CCn2cnc3cc(C)c(C)cc32)c1	2%	-8%
40	CCC(CO)Oc1cc(NCc2ccccc2)c2ncn(C(C)C)c2c1 (configuration not stated)	u	x
41	COc1ccc(/C=C(\NC(=O)c2ccc(OC)cc2)C(=O)N2CCCCC2)cc1	-1%	-15%
42	CCCN1C(=O)c2ccc(C(=O)NC3=NCCS3)cc2C1=O	-8%	-7%
43	Cc1cccc(OCC(=O)Nc2ccc(N3CCN(C(=O)c4ccco4)CC3)cc2)c1C	3%	6%
44	CCN(CC)C(=O)CSc1nnc([C@H](Cc2c[nH]c3ccccc23)NC(=O)OC(C)(C)C)o1	-3%	-5%
45	N#CC1=C(N)Oc2ccc3ccc(O)cc3c2C1c1cccnc1 (configuration not stated)	9%	0%

No.	GLA inh pH 4.5	Rango complex inh
31	x	-2.5%
32	0	-4.6%
33	x	2.6%
34	x	0.3%
35	10	3.6%
36	-3	-1.9%
37	x	-0.8%
38	x	1.1%
39	-8	3.6%
40	x	u
41	x	-0.7%
42	5	-0.7%
43	-7	-1.6%
44	-3	0.1%
45	-2	1.4%

(continued)
No.	molecule	Rango dissoc inh	miR-21 FLuc
46	O=C(c1cccc([N+](=O)[O-])c1)N1CCCC(C(=O)N2CCc3ccccc3C2)C1 (configuration not stated)	56%	3%
47	COCc1ccc(C(=O)N(C)CC2CCCN(CCc3ccccc3F)C2)o1 (configuration not stated)	-3%	-18%
48	CCCCc1c(O)nc2sccn2c1=O	-2%	-4%
49	O=C(C[n+]1cc[nH]c1)c1ccc(Cl)cc1	1%	-5%
50	COc1cc2c(cc1NC(=O)COC(=O)C(CCSC)NC(=O)c1ccccc1Cl)oc1ccccc12 (configuration not stated)	3%	-25%
51	Cc1ccc2oc(=S)n(C)c2c1	-6%	-13%
52	Nc1ccc(C(O)(C(F)(F)F)C(F)(F)F)cc1	0%	1%
53	Cc1ccc(C(=O)N2CCC(C)CC2)cc1C	-3%	-35%
54	O=c1ccnc(SCc2ccccc2Cl)[nH]1	-1%	-3%
55	COc1ccc(-c2ccc3c(c2)S(=O)(=O)c2cccc(C(=O)NC[C@@H]4CCCO4)c2C3=O)cc1OC	31%	x
56	O=C(Cn1cc(C(=O)C2CC2)c2ccccc21)NCc1ccc2c(c1)OCO2	5%	-15%
57	CC(C)(C)OC(=O)N[C@@H](C(=O)OC(C)(C)C)c1ccc(C(F)(F)F)cc1	-7%	x
58	O=C1CCCN1c1ccc(CNS(=O)(=O)c2ccc(F)cc2)cc1	1%	-4%
59	COc1cccc(-c2noc(-c3ccc(Br)o3)n2)c1	-10%	-57%
60	Cc1sc(NC(=O)c2ccco2)c(CN2CCN(c3ccc(F)cc3)CC2)c1C	-11%	-4%

No.	GLA inh pH 4.5	Rango complex inh
46	x	-3.7%
47	x	-2.0%
48	6	-4.7%
49	x	0.0%
50	-5	2.3%
51	10	0.5%
52	-16	0.7%
53	1	-0.1%
54	-5	7.2%
55	x	u
56	-14	-2.5%
57	x	-3.8%
58	-3	0.9%
59	0	1.8%
60	-2	-8.6%

Continued.
No.	molecule	Rango dissoc inh	miR-21 FLuc
61	COc1cc(O)ccc1C(=O)CCc1ccc(O)cc1	-17%	-20%
62	Cn1cc(-c2cccc(C(F)(F)F)c2)cc(C#N)c1=O	-12%	2%
63	CCc1cccc(C)c1NC(=O)CSc1nnc(C)o1	0%	1%
64	CCn1c(SCC(=O)Nc2nccs2)nnc1-c1ccccn1	13%	4%
65	CCOC(=O)C1=C(CC)Nc2ccccc2N=C1NC(=O)c1ccc(S(=O)(=O)N2CCCC2)cc1	0%	0%
66	CCc1nnc(NC(=O)c2ccc(S(=O)(=O)N(CC(C)C)CC(C)C)cc2)o1	5%	-8%
67	CC(=O)c1cccc(N2C(=NC(=O)COc3ccccc3)SC3CS(=O)(=O)CC32)c1 (configuration not stated)	23%	-3%
68	COc1ccccc1NC(=O)Nc1cc(C(C)(C)C)nn1C	8%	6%

No.	GLA inh pH 4.5	Rango complex inh
61	x	-4.6%
62	x	-2.1%
63	x	-1.0%
64	x	2.3%
65	-10	-1.3%
66	3	0.5%
67	x	2.4%
68	-1	0.1%
